Ba CapD inh – inhibitors of Bacillus anthracis CapD enzyme. purified CapD enzyme, fluorescence intensity read-out; hits give low values; some hits fall short of the stated cut. z-score (concentration not given with the values). 140,000 compounds, 0.23% hits;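 active = z-score under -4 in either of two replicates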;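 note: stock transfer was 100 nL into about 40 µL; score is relative to mean and spread of the plate; one replicate is shown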
AID504770 – E. coli YBA685 growth inhibition, screen for V. cholerae RctB inhibitors. E. coli YBA685 rctB-dependent plasmid, OD600 growth, 3 h; hits give low values. z-score (test concentration not listed). 130,000 compounds, 0.27% hits;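 active = z-score under -2 on both plates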;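 note: wells of about 30 µL received 100 nL stock; score is relative to mean and SD of the test wells; the first replicate is given; strong numbers were not always called active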
Starred values were filed as active, the others as inactive; · = no result given; & = joins results of further samples.

entry	Molecule	Ba CapD inh	AID504770
1	COc1ccc(N=C/C(Br)=C/c2ccccc2)cn1	17.8	-0.25
2	CCOC(=O)c1c(C)nc2c(c1-c1ccc(C)cc1)C(=O)c1ccccc1-2	0.465	·
3	O=C(CCSc1nc(-c2ccco2)cc(C(F)(F)F)n1)Nc1ccccc1	-1.92	0.65
4	c1ccc(Oc2nnc(Oc3ccccc3)c3ccccc23)cc1	-0.1	·
5	S=C1NCN(CCCn2ccnc2)CN1	·	-0.85
6	CCCc1c(O)nc(SCC(=O)O)[nH]c1=O	1.12	-0.9
7	COc1ccc(/C=C2\CCc3ccccc3C2=O)cc1CN1CCOCC1	-0.795	1.9
8	O=C(COC(=O)c1ccccc1SCC(=O)N1CCCC1)NCc1ccco1	·	0
9	O=C1CC(c2nc3ccccc3[nH]2)CN1c1cccc(C(F)(F)F)c1 (centres undefined)	·	1.05
10	O=C(c1nc2ncccn2n1)N(Cc1ccccc1)Cc1ccccc1	-1.01	2.15
11	CC(=O)Cn1cnc2sc(-c3ccccc3)cc2c1=O	4.23	-0.05
12	CC(=O)NC(C(=O)NCc1ccc(F)cc1)C(C)C (centres undefined)	·	1.45
13	COc1ccc(C2(N3CCCCC3)Oc3ccccc3C(C#Cc3ccccc3)=C2C)cc1 (centres undefined)	-0.41	·
14	Cc1ccc(-n2ncc3c(=O)[nH]c(SCc4ccccc4)nc32)cc1	0.015	1.2
15	Cc1ccc(N2C(=O)C3C(C2=O)C2(C)c4ccccc4C3(C)c3ccccc32)cc1 (centres undefined)	-0.395	·
16	COc1ccccc1C(=O)N(c1ccccc1)C(C)C1CC1 (centres undefined)	-0.06	2.35
17	CCCCCN1COc2ccc3c4c(c(=O)oc3c2C1)CCC4	73.5	0.1
18	CN(Cc1ccccc1)C(=O)c1cnn(-c2ccccc2)c1-n1cccc1	-0.105	-0.55
19	O=S1(=O)CCN(Cc2cccnc2)CC1	-0.17	-0.6
20	S=C(Nc1ccccc1)c1c(-c2ccccc2)c2c3n(c(-c4cccc(Br)c4)nn13)CCCC2	-1.71	·
21	CC1CCc2c(sc3nc(CN4CCOCC4)nc(Sc4nccn4C)c23)C1 (centres undefined)	·	1.2
22	CC1CCCCN1C(=O)c1ccco1 (centres undefined)	·	0.15
23	CC(C)n1cc(-c2ccccc2NS(=O)(=O)c2ccccc2)cn1	-0.41	·
24	O=C(O)CC(NS(=O)(=O)c1ccc(Br)cc1)c1ccccc1 (centres undefined)	-0.48	-0.6
25	CSc1nnc(-c2ccc(S(=O)(=O)N3CCCCC3)s2)n1C	4.97	0.85
26	CC(C)(C)c1cc(C(F)(F)F)nc(SCCCNC(=O)c2ccco2)n1	·	-1.05
27	O=C(NCc1ccc2c(c1)CCO2)OCC1CCCCN1Cc1ccco1 (centres undefined)	-0.05	·
28	Nc1cccc2c(S(=O)(=O)N3CCOCC3)cccc12	-0.615	-0.35
29	O=C(CSc1nc2ccccc2s1)c1ccc2c(c1)OCO2	·	0
30	CNC(=O)N(O)c1ccccc1	·	-0.15
31	CCCCNc1nc2cccnc2s1	0.59	-0.3
32	COc1ccc(NCC(=O)n2c3ccccc3c3ccccc32)cc1	0.425	0.5
33	CC1=C(/C=C/C(C)=C/C=C/C(C)=C/C=C/C=C(C)/C=C/C=C(C)/C=C/C2=C(C)CCCC2(C)C)C(C)(C)CCC1	1.32	·
34	S=C(NCc1ccco1)Nc1nn(Cc2ccc(Cl)cc2Cl)cc1Cl	-0.54	1.8
35	Cc1cc(SCC2=NNC(=O)/C2=C/N(C)C)c(C)cc1Cl	0.315	·
36	COC(=O)c1ccc(CN(c2ccccc2OC)S(=O)(=O)c2cccs2)o1	·	0.55
37	COC(=O)CCCN	·	-0.8
38	Fc1ccccc1-c1nc(NCCN2CCOCC2)c2ccccc2n1	0.01	·
39	O=C(COC(=O)Cc1c[nH]c2ccccc12)Nc1ccc(Cl)cc1F	1.99	-0.25
40	COc1cccc(COC(=O)c2n[nH]c3ccccc23)c1	·	-0.2
41	CN(C(=O)COC(=O)c1ccc(Cl)cc1O)C1CCS(=O)(=O)C1 (centres undefined)	·	-0.4
42	CCOC(=O)c1cc2c(C)n(-c3ccccc3)c(C)c2cc(C(=O)OCC)c1=O	5.2	0.15
43	Cc1nn(C(=O)CCCC(=O)O)c2ccccc12	-0.82	1.1
44	CC(C)CCN(Cc1ccco1)C(=O)c1oc(=O)c2ccccc2c1-c1ccccc1	0.81	-0.1
45	Cc1nc(-c2ccccc2)sc1-c1nnnn1-c1ccc(Cl)cc1	4.03	-0.1
46	O=C(NCCn1ccc2ccccc21)C1CC1	-0.36	-0.85
47	Cc1cccn2c(=O)nc(SCc3cccc(C(F)(F)F)c3)nc12	14.1	·
48	CCN(CC)C(=O)C1CCCN(c2ncnc3c2cnn3-c2ccc(Cl)cc2)C1 (centres undefined)	0.2	·
49	COc1ccc(/C=C2/NC(=O)N(Cc3ccccc3F)C2=O)cc1	2.74	0.35
50	CCC1CCCCN1C(=O)CSc1nnc(-c2cccs2)o1 (centres undefined)	1.28	-0.15

Going on with the list.
entry	Molecule	Ba CapD inh	AID504770
51	Cc1ccc(C2CC(C(F)(F)F)n3ncc(C(=O)Nc4sc5c(c4C(=O)OC(C)C)CCCC5)c3N2)cc1 (centres undefined)	3.92	·
52	Cc1cc(N2CCC(N(C)C3CCCC3)CC2)nc2cc(O)ccc12	73.3	-0.3
53	C=C1N(c2cccc(Cl)c2)C(=O)OC1(C)C	-0.755	-2
54	CCOc1ccc(CCNC(=O)c2cccnc2N2CCCC2)cc1OCC	-0.32	1.2
55	CN(C)c1ccc(/C=N/N=C(N)N)cc1	48.5	-0.95
56	O=S(=O)(Nc1ccc(N2CCCCC2)cc1)c1ccccc1	0.47	-1.1
57	O=C(COC(=O)c1c[nH]c(=O)[nH]c1=O)NCc1ccccc1	·	0.1
58	Cc1[nH]c2ccccc2c1C(=O)CSc1ccccn1	-1.31	1.1
59	O=C(CS(=O)(=O)CC(=O)c1ccccc1)c1ccccc1	-0.08	-1.05
60	S=c1nn[nH]n1C1CCCC1	0.095	-0.9
61	COc1ccc(C)cc1NC(=O)N1CCC(C)CC1	-1.07	3.25
62	CCSc1nnc(Nc2ccccc2)s1	·	-0.65
63	Cc1cc2c(cc1C)CSC(c1ccc(Cl)c(Cl)c1)SC2	0.275	·
64	COc1ccc(/C=C2\SC(=N)N(c3ccc(F)cc3)C2=O)cc1OC	0.365	·
65	CC(C)C(C)(C#N)NC(=O)c1cccnc1Oc1ccc(Cl)cc1 (centres undefined)	0.595	0.2
66	CC1(C)CC(=O)C(C=Nc2ccccc2)=C(O)C1	-0.845	-0.65
67	CCn1c(CSc2nc3ccccc3s2)nnc1SCC(=O)C(C)(C)C	·	0.95
68	COc1ccc(NC(=O)CSC2=C(C#N)C(c3cccs3)C3=C(CCCC3=O)N2)cc1 (centres undefined)	3.78	·
69	O=S(=O)(c1ccc(Cl)cc1)N1CCC(O)(CN2CCCCC2)CC1	-0.61	·
70	NC(=O)c1ccccn1	·	1.4
71	Cc1ccc(-n2ncc(C(=O)NCCN3CCCCC3)c2C2CCN(C(=O)OC(C)(C)C)CC2)cc1	-0.09	0
72	CSc1n[nH]c(NC(=O)c2cccs2)c1S(=O)(=O)c1ccc(Cl)cc1	0.22	-0.2
73	O=C(N/N=C/c1cccc(C(F)(F)F)c1F)c1ccccc1Oc1ccccc1	-0.175	·
74	CCN1C[C@@]2(COC)C3[C@@H](OC)[C@H]4[C@@H]1[C@]3(C(OC)C[C@H]2O)C1C[C@@]2(O)[C@H](OC(=O)c3ccccc3)C1[C@]4(OC(C)=O)[C@@H](O)[C@@H]2OC (some centres undefined)	-0.04	0.85
75	N#CCc1ccc(NC2(C#N)C3CC4CC(C3)CC2C4)cc1 (centres undefined)	0.465	0.4
76	Cc1ccc(S(=O)(=O)NC(=O)N(C)C2CCCCC2)cc1	-1.14	2.2
77	CN=c1scc(C)n1/N=C/C1CCCCC1	·	-1.6
78	CNS(=O)(=O)c1ccccc1Sc1cccc2cccc(C(=O)O)c12	1.21	-0.05
79	c1coc(CNc2nc[n+]3c4c2ncn4CC3)c1	-0.155&0.41	-0.3&-0.15
80	O=C(NCC12CC3CC(CC(C3)C1)C2)c1cc(-c2ccccc2O)no1	-0.125	-1
81	CSC(=O)CNC1(Cc2ccc(O)cc2)CCCCC1	-0.13	-0.05
82	CN1CCC(N(C)C(=O)c2cc(=O)c3ccccc3o2)CC1	·	0.2
83	Cc1sc2ncnc(SCC(=O)Nc3ccc(Br)cc3)c2c1C	-0.03	·
84	Cc1nnc(NCc2ccc(F)cc2)c2c1nnn2Cc1ccc(F)cc1	-0.065	1
85	CCOC(=O)c1c(CSc2ccccc2)n(C2CCCCC2)c2cc(Br)c(O)c(CN(C)C)c12	-0.775	·
86	O=c1oc(-c2cccs2)nn1CN1CCN(Cc2cccs2)CC1	·	-0.25
87	O=C(NCCO)N1c2ccccc2Sc2ccccc21	3.98	0.35
88	CCN(CC)C(=O)CSc1nc2cccnc2n1-c1ccccc1OC	·	-0.7
89	Cc1ccc(C(=O)CC(NCCN2CCOCC2)C(=O)O)cc1 (centres undefined)	-0.165	-0.2
90	O=S(=O)(c1ccc(S(=O)(=O)N2CCC3(CC2)OCCO3)cc1)N1CCCC1	·	-0.35

Next section, overlapping the part above by 4 compounds.
entry	Molecule	Ba CapD inh	AID504770
87	O=C(NCCO)N1c2ccccc2Sc2ccccc21	3.98	0.35
88	CCN(CC)C(=O)CSc1nc2cccnc2n1-c1ccccc1OC	·	-0.7
89	Cc1ccc(C(=O)CC(NCCN2CCOCC2)C(=O)O)cc1 (centres undefined)	-0.165	-0.2
90	O=S(=O)(c1ccc(S(=O)(=O)N2CCC3(CC2)OCCO3)cc1)N1CCCC1	·	-0.35
91	O=C(O)CCCC(=O)N1CCCC1	1.1	-0.25
92	CCOc1ccc2c(c1)C(=C1SC(C(=O)OC)=C(C(=O)OC)S1)C(=S)C(C)(C)N2C(=O)c1ccccc1Cl	-0.545	·
93	COc1cc(Cn2c(N)c(C#N)c3nc4ccccc4nc32)cc(OC)c1OC	·	-0.9
94	Oc1ccccc1C1=Nc2ccccc2N=C(c2ccco2)C1	·	1.9
95	O=C(Nc1ccccc1)OCc1cn(-c2ccc(Cl)c(Cl)c2)nn1	-0.07	·
96	COC(=O)c1sccc1NC(=S)NCCN1CCNC1=O	1.13	0
97	CCOc1ccc(NC(=O)Cn2c(=O)n(CC(=O)NC3CCCC3)c(=O)c3ccccc32)cc1	-0.235	2.15
98	c1ccc(OCCN2CCNCC2)cc1	·	0
99	Cc1ccc(C(=O)Nc2ccc(N3CCN(c4ccccc4)CC3)c(F)c2)cc1	-0.085	·
100	O=C(c1cccc(Cl)c1)N1CCC(c2nc3ccccc3s2)CC1	0.045	·
101	Cc1nc(N2CCCC2)c2ccsc2n1	1.04	-0.55
102	CCN(CC)C(=O)COc1ccc(OC)cc1	0.185	-1.05
103	COCCCN1C(=O)/C(=C\c2c(N3CC(C)OC(C)C3)nc3c(C)cccn3c2=O)SC1=S (centres undefined)	-0.33	·
104	CC(=O)N1CC(C)Sc2cc(S(=O)(=O)NCc3ccco3)ccc21 (centres undefined)	3.35	-0.2
105	CC(c1ccccc1)N1CCN(C(=O)OCc2ccc(C#CC(C)(C)O)cc2)CC1 (centres undefined)	-0.395	·
106	COc1cc(OC)c(/C=N/NC(=O)c2cc(Cl)ccc2OC)cc1Br	1.19	·
107	Cc1nc2sccn2c1-c1nc(-c2ccc(Br)o2)c(C(=O)c2ccc3c(c2)OCCO3)s1	·	0.3
108	COCCn1c(N)c(C(=O)NCc2ccccc2)c2nc3ccccc3nc21	·	1.4
109	CCc1nc(-c2ccc(Cl)cc2)cs1	1.14	-0.2
110	Cc1cc(C)c2c(c1C#N)CC(C)(C)C2=O	-0.605	0.45
111	Cn1cccc1Cc1nnc(SCC(=O)N2CCc3ccccc32)n1Cc1ccccc1	0.43	-1.4
112	CC(=O)N1CCCc2ccc(NC(=O)Cc3ccc(F)cc3)cc21	·	0.45
113	Cc1c(NC2=C(C(=O)c3ccccc3)N(C)S(=O)(=O)c3ccccc32)c(=O)n(-c2ccccc2)n1C	0.04	-1.35
114	COc1ccc(N2CCN(S(=O)(=O)c3cc(C)ccc3OC)CC2)cc1	-0.765	·
115	Cc1cc(C)n(CC(=O)Nc2nc(-c3ccccc3)cs2)n1	·	-1
116	Cc1ccc2[nH]c3c(c2c1)CCCC3=NCCO	4.55	0.2
117	Cc1noc(C)c1C(=O)Nc1nnc(SCC(=O)O)s1	0.05	-0.45
118	COc1ccc(C(=O)n2nccc2-c2ccc(-c3cccs3)s2)cc1	46.6	-0.7
119	Nc1nc2c(s1)CCc1ccccc1-2	0.16	·
120	CC(=O)Nc1nc2c(s1)CCc1ccccc1-2	1.25	-0.55
121	O=C(CSc1ccccn1)c1ccc(Cl)cc1	·	-0.15
122	CCOC(=O)c1c(C)n(-c2cccc(Br)c2)c2c1cc(O)c1ccccc12	0.2	·
123	Cc1ccc(S(=O)(=O)NNC(=O)/C=C/c2ccc(Cl)cc2)cc1	-0.775	·
124	Nc1c(-c2ccccc2)cnn1-c1ccccc1	0.19	-0.3
125	O=c1[nH]c2c(c(=O)[nH]1)CCC2	·	-0.7
126	Cc1ccsc1C=Nc1ccc(Nc2ccccc2)cc1	-0.075	-0.35

Not all compounds are listed. The share of hits here may be higher or lower than overall.
